D2 ag = agonists of human D2 dopamine receptor (beta-arrestin). P14416. DiscoveRx PathHunter D2 beta-arrestin, luminescence, 90 min; 100% = 57 uM dopamine signal. activation, % (concentration not given with the values). hit rate 0.084% among 360,000; in the data active = activation above about 40%; inconclusive = about 15% to 40%; inactive = below about 15%; further: compound concentration not given in the record; the text of the record calls up to 30% inactive
Target sequence (P14416 whole entry, looked up): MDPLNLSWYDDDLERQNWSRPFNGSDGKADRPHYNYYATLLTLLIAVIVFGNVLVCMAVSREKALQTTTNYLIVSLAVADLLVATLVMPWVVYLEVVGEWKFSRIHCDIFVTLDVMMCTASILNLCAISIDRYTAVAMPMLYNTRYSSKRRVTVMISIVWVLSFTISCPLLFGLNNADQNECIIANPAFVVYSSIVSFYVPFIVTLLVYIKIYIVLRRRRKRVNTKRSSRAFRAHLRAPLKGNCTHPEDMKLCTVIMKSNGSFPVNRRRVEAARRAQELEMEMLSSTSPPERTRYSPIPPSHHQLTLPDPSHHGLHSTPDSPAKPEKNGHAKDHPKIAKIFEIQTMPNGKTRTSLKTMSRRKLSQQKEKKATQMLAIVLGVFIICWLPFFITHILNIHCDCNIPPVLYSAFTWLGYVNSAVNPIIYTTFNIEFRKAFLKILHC
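Agonist mode: compounds alone added to overnight-plated D2 PathHunter cells for 90 min at 37 C, with 57 uM final dopamine (EC100) defining full response. Beta-arrestin recruitment detected by chemiluminescent reagent, read after 1 h at ambient temperature.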
PINK1 expr mod = modulators of PINK1 expression. PINK1 immunofluorescence, high-content cytometry, 24 h. Potency, µM (titrated, usually from 76.6 µM), inactives show at the highest dose activation (PINK1 increase), most hits filed as activators. hit rate 0.2% among 410,000. AID 624263; active = well fitted activation curve with a large enough effect; inconclusive = small, poorly fitted or top-dose-only effect; inactive = flat fitted curve, though single readings scatter; cell line not stated here;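 further: potency means the concentration at half of the fitted maximal effect; % of control where 0% means no effect; nearly all actives have a fitted effect of over 65% in size; a mitochondrial uncoupler was the plate control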
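Stable cell line treated 24 h with compounds at 5 concentrations (CCCP controls), then fixed and immunostained for PINK1 plus nuclear and cell stains; PINK1 immunofluorescence quantified by laser-scanning microplate cytometry.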
Six1-Eya2 blk = Six1/Eya2 interaction inhibition. hit rate 0.56% among 360,000. AlphaScreen GST-Six1/His-Eya2 binding, biochemical; hits give low values; control for the full effect not named in the record. activity change, % (no concentration beside the values); in the data active = activity change below about -65%; inconclusive = about -30% to -65%; inactive = above about -30%; further: on the % scale 0 is the no-effect control and ±100 the full control effect; compound concentration not given in the record
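Six1/Eya2 binding was read as AlphaScreen signal after compounds were pinned into GST-Six1 plus His-tagged Eya2 (5X stock 250/500 nM) in pH 8.0 Tris/NaCl/TCEP buffer, beads added, then incubated 1 h, 37 C, dark.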
TRPML1 blocker = blocks the human TRPML1 channel. TRPML1-inducible cells, Ca2+ dye fluorescence, FDSS; hits give low values; inhibition of EC80 agonist-evoked calcium signal. activity change, negative = inhibition, % (no concentration beside the values). hit rate 0.02% among 390,000. AID 624415; in the data active means activity change below about -50%; inconclusive means about -30% to -50%; inactive means above about -30%;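 further: stimulus is agonist 54-4 at its EC80 concentration; on the % scale 0 is the no-effect control and ±100 the full control effect; compound concentration not given in the record; the text of the record puts the active cut at -80%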
Target sequence (Q9GZU1 whole entry, looked up): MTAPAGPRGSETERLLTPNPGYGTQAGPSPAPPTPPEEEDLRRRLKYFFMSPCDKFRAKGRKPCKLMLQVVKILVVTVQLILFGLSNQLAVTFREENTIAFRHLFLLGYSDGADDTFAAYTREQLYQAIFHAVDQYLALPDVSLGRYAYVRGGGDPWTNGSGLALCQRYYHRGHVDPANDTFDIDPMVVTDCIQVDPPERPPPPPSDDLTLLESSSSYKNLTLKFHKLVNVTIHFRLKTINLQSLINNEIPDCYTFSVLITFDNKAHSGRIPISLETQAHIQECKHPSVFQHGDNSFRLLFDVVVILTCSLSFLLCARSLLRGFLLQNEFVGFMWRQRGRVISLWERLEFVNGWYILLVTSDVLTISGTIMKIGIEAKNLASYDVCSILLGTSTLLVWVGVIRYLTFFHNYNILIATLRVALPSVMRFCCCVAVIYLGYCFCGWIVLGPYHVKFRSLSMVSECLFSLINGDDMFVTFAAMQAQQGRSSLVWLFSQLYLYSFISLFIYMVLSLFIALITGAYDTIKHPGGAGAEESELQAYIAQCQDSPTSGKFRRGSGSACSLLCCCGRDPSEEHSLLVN
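Calcium fluorescence in TRPML1-DL cells induced overnight with Tet: a 110 s read after compound pin addition, then a 110 s antagonist read after challenge with 54-4 at 4 uM final (EC80).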
D2 potentiator = positive allosteric modulators of human D2 dopamine receptor. P14416. DiscoveRx D2 beta-arrestin cells, luminescence, 90 min; 100% = 57 uM dopamine signal. potentiation, % (concentration not given with the values). hit rate 0.23% among 360,000. AID 624464; active = potentiation of 50% or more; inconclusive = 30% to 50%; inactive = 30% or less;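 further: compound concentration not given in the record; tested on top of an EC20 dose of dopamine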
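PathHunter D2 cells, attached overnight at 37 deg C, received compound in DMSO plus dopamine at EC20 (50 nM final) for 90 min at 37 deg C. Beta-arrestin recruitment was read as luminescence after 1 h with detection reagent at ambient temperature.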
TRPML1 agonist = activates the human TRPML1 channel; Q9GZU1; TRPML1-expressing cells, Ca2+ dye fluorescence, FDSS; host cell line not named in the record; reference of the full effect not given here; activation, % (no concentration beside the values); hit rate 0.12% among 410,000; AID 624414; in the data active = activation above about 50%; inconclusive = about 30% to 50%; inactive = below about 30%; further: 0% is about no effect; the text of the record puts the active cut at 80%
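Kinetic FDSS Ca2+ read in Tet-induced TRPML1-DL cells (ABD Ca8 dye plus quencher, 45-90 min RT loading): baseline, then compound, then 110 s agonist window; EC80 agonist 54-4 at 4uM final added afterwards for a 110 s antagonist window.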
* = called active by the depositor; u = inconclusive; x = no result given; [ ] = dose if it differs, or a comment.

SMILES | D2 ag | PINK1 expr mod | Six1-Eya2 blk | TRPML1 blocker | D2 potentiator | TRPML1 agonist
CC(C)(O)C#Cc1ccc(CN2CCN(Cc3ccsc3)C(CCO)C2)s1 (stereo not given) | -2.4 | -0.4% | 5 | -3 | -12 | -0.1
Cc1nc(S(=O)(=O)c2ccc(Cl)cc2Cl)nc2c1CCC2 | -2.0 | 1.1% | 7 | 30 | -10 | -0.8
O=C(COC(=O)CCc1nc2ccccc2c(=O)[nH]1)Nc1c(Cl)cccc1C(F)(F)F | -5.5 | 0.7% | 10 | -6 | 0 | -0.4
Cc1cccc(Cn2c(SCc3ccc(C(=O)NCCc4ccccc4)cc3)nc3ccncc32)c1 | x | 1.0% | x | -16 | x | 3.2
Cc1cc(C)c2nc(N(CCN(C)C)C(=O)c3ccc(S(=O)(=O)N(C)CC4CCCO4)cc3)sc2c1 (stereo not given) | -0.6 | -0.6% | -17 | 15 | -18 | -0.3
O=C(CCl)N1c2ccccc2OCC1c1ccccc1 (stereo not given) | -2.2 | -2.5% | 1 | 13 | -11 | -0.5
Cc1cccc(OC(=O)Nc2ccc(C(=O)O)c(O)c2)c1 | -2.9 | -1.0% | 11 | u | -12 | -0.1
CC1=C(C(=O)N2CCCCCC2)CC(CC(=O)NC2CC2)C(=O)N1Cc1ccccc1 (stereo not given) | -3.6 | -0.5% | 4 | -27 | -6 | 0.3
Cc1ccc(O)c(NC(=O)CSc2ccc(Cl)cc2)c1 | 9.6 | 9.5% | -6 | -5 | -22 | 0.7
CC1CCN(C(=O)COc2ncnc3ccccc23)CC1 | 1.9 | 3.2% | 2 | 3 | 2 | 0.4
COc1ccc(NC(=O)c2c(NC(=O)COc3ccccc3)sc3c2CCC(C)C3)cc1 (stereo not given) | x | 0.0% | x | -11 | x | 0.1
O=C(NC1CCCC1)C1(c2ccccc2)CCN(S(=O)(=O)c2ccccc2)CC1 | -2.9 | 1.2%[38.3 µM] | 3 | -2 | -17 | -0.4
CCCCCCCCC(=O)N/N=C(\C)c1ccc(O)cc1O | -1.1 | 6.4% | -10 | -9 | -23 | -0.5
COc1cccc(CN2C(=O)CN(C3CCCCC3)C(=O)C2c2ccc(OC(C)C)c(OC)c2)c1 (stereo not given) | x | 0.2% | x | -22 | x | 0.9
Cc1ccc(NC(=O)c2ccc(NC(=O)N3CCSc4ncccc43)cc2)cc1Cl | x | 1.9% | x | 11 | x | 2.1
COc1cccc(OCC(=O)NNC(=O)Cc2cccs2)c1 | -0.8 | -0.8% | -1 | 28 | -10 | 1.9
Cc1ccc(NC(=O)CC(O)(C(F)(F)F)C(F)(F)F)c(Br)c1 | -2.1 | x | 8 | 5 | 4 | 0.1
CC(=O)c1c(C)[nH]c(C(=O)N2CCN(S(=O)(=O)c3ccc(C)cc3C)CC2)c1C | 1.0 | -0.3% | -4 | -1 | 5 | -1.3
Cn1c(COc2nnc(-c3ccc(Cl)cc3)c3ccccc23)nc2ccccc21 | -0.1 | 1.2%[38.3 µM] | 8 | 6 | -2 | 0.0
Cn1c(=O)c2c(ncn2CC(=O)OCC(=O)NC(c2ccccc2)c2ccccc2)n(C)c1=O | 5.1 | 4.7% | 7 | -15 | -4 | 0.6
COc1cccc(CNC(=O)c2cc3c(=O)n(C)c4ccccc4c3n2C)c1 | x | 1.6% | x | -18 | x | -0.9
CCOCCCNC(=S)N1CCC(NC(=O)C23CC4CC(CC(C4)C2)C3)CC1 | 0.3 | 1.0% | 7 | 3 | 4 | 0.7
O=C(c1ccc(F)cc1)n1c(NCc2ccccc2)n[nH]c1=S | -3.2 | 1.8% | 4 | 2 | -3 | 1.4
COc1ccc(C(=O)Nc2nc(CC(=O)NCCc3ccccc3OC)cs2)cc1 | -2.2 | 0.5% | -16 | 22 | -1 | 4.2
O=C(NCc1ccccc1)C(c1ccc(F)cc1)N(Cc1ccc2c(c1)OCO2)C(=O)Cn1nnc(-c2cccs2)n1 (stereo not given) | 0.1 | 1.9% | -7 | 4 | 0 | 0.8
O=C(CSc1ccc2nc(-c3ccccc3)cn2n1)NCC1CCCO1 (stereo not given) | -3.5 | 0.1% | 2 | 6 | -12 | 0.0
COCCNC(=O)C(=O)Nc1cc2c3c(c1)CCC(=O)N3CCC2 | -3.1 | -0.5% | 7 | -12 | -6 | 0.4
C=Cc1ccc(Cn2c(SCC(=O)N3CCN(c4ccc(F)cc4)CC3)nc3ccccc32)cc1 | x | 5.9% | x | -21 | x | 0.8
COc1cc(C2SCC(=O)N2c2c(C)n(C)n(-c3ccccc3)c2=O)ccc1O (stereo not given) | -4.1 | -1.1% | -8 | -14 | -8 | -0.4
O=C(CCN1CCN(C/C=C/c2ccccc2)CC1)Nc1ccccc1F | 2.6 | -0.8% | 2 | -6 | -15 | 0.3
COc1cccc(OC)c1C(=O)NC(=S)Nc1ccc(N2CCOCC2)c(Cl)c1 | -1.7 | 0.9% | -2 | 27 | -5 | 1.8
CCOC(=O)c1c(C)oc(NC(=O)CCl)c1C(=O)OCC | -8.1 | 1.8% | 13 | -3 | -16 | 0.5
O=C(N/N=C/c1ccc(O)cc1)c1cccc(C(F)(F)F)c1 | 0.1 | 0.5% | -2 | 12 | -13 | 1.0
O=C(C[n+]1cc(Br)cc(Br)c1)c1cccc([N+](=O)[O-])c1 | 0.3 | -1.1% | -5 | -1 | 3 | 0.6
O=C(Nc1cc(S(=O)(=O)N2CCOCC2)ccc1N1CCOCC1)c1ccccc1F | 7.7 | -1.2% | 5 | 21 | -3 | -0.3
CCc1ccccc1NC(=O)Cn1nnc(-c2cccnc2)n1 | -2.1 | -3.1%[38.3 µM] | 0 | -5 | -9 | -0.7
COc1ccc(C(=O)/C=C2/Sc3cc4c(cc3N2C)OCO4)cc1 | 11 | u | 6 | -11 | 9 | 0.2
Cc1c(Cl)cccc1-n1ncc(C(=O)N2CCN(c3ncccn3)CC2)c1C1CCN(C(=O)OC(C)(C)C)CC1 | x | 1.3% | x | -8 | x | -0.6
Cc1cc([N+](=O)[O-])nn1CC(=O)N1CCCc2ccccc21 | 1.0 | 0.2% | 7 | 30 | -1 | 0.9
CC1CN(S(=O)(=O)c2cccc(C(=O)Nc3ccc(N4CCCCC4)cc3)c2)CC(C)O1 (stereo not given) | -0.3 | 0.2% | 5 | -6 | 2 | 0.0

Exported with values under each structure: five of the compounds above.
Under each structure – D2 ag | PINK1 expr mod | Six1-Eya2 blk | TRPML1 blocker | D2 potentiator | TRPML1 agonist
O=C(C[n+]1cc(Br)cc(Br)c1)c1cccc([N+](=O)[O-])c1
    0.3 | -1.1% | -5 | -1 | 3 | 0.6
O=C(Nc1cc(S(=O)(=O)N2CCOCC2)ccc1N1CCOCC1)c1ccccc1F
    7.7 | -1.2% | 5 | 21 | -3 | -0.3
CCc1ccccc1NC(=O)Cn1nnc(-c2cccnc2)n1
    -2.1 | -3.1%[38.3 µM] | 0 | -5 | -9 | -0.7
COc1ccc(C(=O)/C=C2/Sc3cc4c(cc3N2C)OCO4)cc1
    11 | u | 6 | -11 | 9 | 0.2
Cc1c(Cl)cccc1-n1ncc(C(=O)N2CCN(c3ncccn3)CC2)c1C1CCN(C(=O)OC(C)(C)C)CC1
    x | 1.3% | x | -8 | x | -0.6

(more compounds)
SMILES | D2 ag | PINK1 expr mod | Six1-Eya2 blk | TRPML1 blocker | D2 potentiator | TRPML1 agonist
CCc1ccc2occ(CC(=O)Nc3nnc(C)s3)c2c1 | x | -0.7% | x | u | x | 0.4
Cc1ccc(NC(=O)CSc2nnc(-c3cccs3)n2Cc2ccco2)cc1 | -3.6 | 2.1%[38.3 µM] | -10 | -5 | -11 | 1.0
COc1ccc(/C=C2/SC(=O)N(CCCCCC(=O)Nc3ccccc3C(=O)O)C2=S)cc1 | 0.3 | -3.4% | 4 | 5 | -8 | -0.1
Cc1c(Cl)cccc1NC(=S)NN | -5.7 | 2.6% | 0 | 9 | -6 | 2.4
N#Cc1nc(-c2ccc(F)cc2)oc1NCCN1CCOCC1 | -2.4 | 1.7% | 12 | -1 | -6 | -1.1
NCCc1ccn[nH]1 | -1.0 | 0.3% | 1 | -15 | -2 | -0.8
Cc1ccc(CNC(=O)[C@@H](NC(=O)Cc2ccccc2)C(C)C)cc1 | -4.4 | 3.0% | 8 | -5 | 1 | 0.0
CCOC(=O)C1CSc2[nH]c(=O)sc2C1c1ccccc1 (stereo not given) | 4.1 | -0.2% | 0 | -4 | 6 | 1.3
CN(CC(=O)NCc1ccccc1Cl)S(=O)(=O)c1ccc2c(c1)c(=O)n(C)c(=O)n2C | x | 1.4% | x | 33 | x | -0.2
COc1ccc(OC)c(S(=O)(=O)Nc2ccc(O)c(Sc3ncn[nH]3)c2)c1 | 6.2 | 7.8%[38.3 µM] | -1 | 8 | 26 | -0.4
CCCCC(CC)CNCc1cccn1CCN1CCOCC1 (stereo not given) | -3.8 | 1.5% | -10 | -7 | -9 | 0.1
Cc1ccccc1CNC1CCCCC1 | -0.6 | 1.2% | 1 | -14 | -6 | 1.3
CC(=O)Oc1ccc(C(=O)NCc2ccco2)cc1 | 1.1 | 0.5% | -3 | -3 | -2 | 0.5
CCOC(=O)N1CCN(C(=O)c2ccc(N3C(=O)CCC3=O)cc2)CC1 | -1.5 | -3.4% | 6 | -15 | -2 | 0.0
N#CC12CCCCC1CC1CCCCC1(C#N)N2Cc1cccnc1 (stereo not given) | -1.6 | 3.2% | 10 | 29 | -16 | 0.6
COc1cc(/C=N/N=C/c2cc(OC)c(O)c(OC)c2)cc(OC)c1O | -0.5 | 8.0% | u | -1 | -8 | 1.1
O=C(COC(=O)c1ccc(Br)o1)NCc1ccco1 | -5.4 | 1.5% | -9 | 5 | -7 | -1.8
CN(c1ccc(OCc2nnc(-c3ccccc3)o2)cc1)S(=O)(=O)c1ccccc1 | -1.7 | -2.2% | 8 | 45 | 12 | 1.7
CC(C)c1cc(C(=O)O)n(-c2ccccc2)n1 | -2.9 | x | 7 | -4 | 9 | 0.5
COCCC1CCCCN1C(=O)c1cccc(OC2CCN(S(C)(=O)=O)CC2)c1 (stereo not given) | -1.1 | -1.2% | -1 | -15 | 9 | 1.1
COc1ccccc1N1CCN(C(=O)CN2C(=O)c3cccc4cccc(c34)C2=O)CC1 | 1.8 | 0.3% | -2 | 30 | -3 | 0.9
Cc1cccc(N(CC(=O)NC(C)c2ccccc2)S(=O)(=O)c2ccccc2)c1C (stereo not given) | x | 3.5% | x | 35 | x | 3.3
COc1cc(OCc2ccccc2)c(C(=O)/C=C/c2ccc3c(c2)OCO3)c(OC)c1OC | -0.4 | 0.3% | 9 | 25 | -10 | 4.7
Cc1cc(NC(=O)CCC(=O)N(c2ccccc2C)C(C(=O)NC2CCCC2)c2ccccc2)no1 (stereo not given) | 2.3 | 2.3% | 5 | 8 | -7 | 0.6
Cc1c(-c2cccc(NC(=O)C(C)(C)C)c2)nc2ncccn12 | x | 0.6% | x | 11 | x | 0.1

Compound activity deposited in PubChem by National Center for Advancing Translational Sciences (NCATS).
